Bioassay records as filed in PubChem BioAssay.
Cruzain inh Det – blocks cruzain activity in presence of Triton detergent | 0.43% of 200,000 active | Potency, µM, inactives show max response, negative = inhibition, most hits filed as inhibitors | AID 1478 | purified cruzain, Z-FR-AMC fluorescence, 0.01% Triton | P25779;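 also: plate controls were neutral wells for no effect and buffer without enzyme for full effect; nearly all actives have a fitted effect of over 40% in size; top concentration of the series not given in the record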
Target sequence (P25779 123-467 limits assumed): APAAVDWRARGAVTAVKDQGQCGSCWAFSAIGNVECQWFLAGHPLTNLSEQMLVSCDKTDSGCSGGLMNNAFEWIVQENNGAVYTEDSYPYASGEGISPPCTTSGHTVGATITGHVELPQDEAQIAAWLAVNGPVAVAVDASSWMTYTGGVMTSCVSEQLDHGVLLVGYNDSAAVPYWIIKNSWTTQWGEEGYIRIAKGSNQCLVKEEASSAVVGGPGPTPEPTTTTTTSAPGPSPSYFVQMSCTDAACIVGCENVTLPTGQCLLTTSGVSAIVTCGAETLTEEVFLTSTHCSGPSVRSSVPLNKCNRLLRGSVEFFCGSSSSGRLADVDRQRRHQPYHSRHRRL
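Detergent-containing arm of a paired screen for aggregation-based inhibition: 0.01% Triton X-100 present. Cruzain at 1.5 nM cleaved 2 uM Z-FR-AMC at pH 5.5 with 5 mM DTT; AMC fluorescence gain over 60 s measured activity.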
Cruzain inh noDet – blocks cruzain activity in detergent-free assay; P25779; purified cruzain, Z-FR-AMC fluorescence, no detergent; Potency, µM, without a hit: max response, negative = inhibition, most hits filed as inhibitors; 2.3% of 200,000 active; AID 1476;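 also: plate controls were enzyme without inhibitor for no effect and buffer without enzyme for full effect; nearly all actives have a fitted effect of over 40% in size; top concentration of the series not given in the record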
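Detergent-free condition (0.00005% Triton X-100) in acetate buffer pH 5.5 with DTT. 1.5 nM enzyme and compound were pre-mixed 15 min, then 2 uM Z-FR-AMC substrate added; reaction progress from fluorescence change between first and third reads (60 s).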
SARS PLpro yeast – blocks SARS-CoV papain-like protease in a yeast assay. S. cerevisiae expressing SARS-CoV PLpro, growth rescue; control for the full effect not named in the record. Potency, µM (series often up to 32.9 µM), for the others: at the top dose activity, positive = growth rescue. 0.19% of 330,000 active. AID 485353; active means well fitted rising curve with a large enough effect; inconclusive means small, poorly fitted or top-dose-only effect; inactive means no such curve, though single readings can be large or run the other way; also: 0% is about no effect; nearly all actives have a fitted effect of over 55% in size; growth read by luminescence after 48 h
Marburg entry inh – Marburg virus entry inhibition; Potency, µM (highest dose often 37.8 µM), for the others: top-dose activity change, negative = inhibition, usual class: inhibitors; 1.8% of 300,000 active; Marburg virus pseudotyped entry inhibition, cell reporter; control for the full effect not named in the record; about a third of the inactives were read at about 46 µM; AID 540276; active = well fitted inhibition curve with a large enough effect; inconclusive = small, poorly fitted or top-dose-only effect, or effect the other way; inactive = flat fitted curve, though single readings scatter; tested in HEK293 cells; about a fifth of its hits are not listed in these tables; also: % is scaled to controls: 0 for no effect and ±100 for the full control effect; luciferase read-out
StopGo reporter – lowers the luciferase signal of an FMDV 2A StopGo reporter. human cells with a luciferase reporter of 2A StopGo recoding; control for the full effect not named in the record. AID 1159524. 1.2% of 410,000 active. Potency, µM (doses to about 57.9 µM), inactives show at the highest dose signal change, negative = less light; active = well fitted falling curve with a large enough effect; inconclusive = small, poorly fitted or top-dose-only effect; inactive = no such curve, though single readings can be large or run the other way; tested in HEK293T cells; also: % is scaled to controls: 0 for no effect and ±100 for the full control effect; nearly all actives have a fitted effect of over 45% in size; luciferase light after 4 h
Lassa entry inh – inhibitors of Lassa virus binding or cell entry | Potency, µM (top dose mostly 37.9 µM), for the others: at the top dose activity change, negative = inhibition, usual class: inhibitors | AID 540256 | Lassa virus pseudotype entry inhibition, cell reporter; control for the full effect not named in the record | 1.2% of 300,000 active; active means well fitted inhibition curve with a large enough effect; inconclusive means small, poorly fitted or top-dose-only effect, or effect the other way; inactive means flat fitted curve, though single readings scatter; tested in HEK293 cells; also: % is scaled to controls: 0 for no effect and ±100 for the full control effect; nearly all actives have a fitted effect of over 50% in size; luciferase read-out
RE007 growth inh – less growth of the S. pombe RE007 Vpr strain; S. pombe RE007 Vpr strain, BacTiter-Glo ATP luminescence, 24 h; control for the full effect not named in the record; 0.21% of 360,000 active; Potency, µM (titrated, usually from 92.2 µM), inactives show at the top dose activity change, negative = less growth; AID 651644; active = well fitted falling curve with a large enough effect; inconclusive = small, poorly fitted or top-dose-only effect; inactive = no such curve, though single readings can be large or run the other way;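 also: % is scaled to controls: 0 for no effect and ±100 for the full control effect; nearly all actives have a fitted effect of over 50% in size; the assay follows cell death caused by Vpr and the record does not say whether a fall means rescue or toxicity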
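Fission yeast strain RE007, carrying one chromosomally integrated HIV-1 vpr copy, was seeded at OD 0.01 in PMG+AL medium with 23 nL pinned compound. After 24 h at 30 °C and 99% humidity, viability was read by BacTiter-Glo luminescence.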
NS1 inh – influenza NS1 inhibition; S. cerevisiae slowed by influenza A NS1, growth recovery by OD600; Potency, µM (titrated, usually from 46.1 µM), for the others: top-dose activity, positive = more growth; 0.4% of 270,000 active; AID 2326; active means well fitted rising curve with a large enough effect; inconclusive means small, poorly fitted or top-dose-only effect; inactive means no such curve, though single readings can be large or run the other way; also: nearly all actives have a fitted effect of over 50% in size
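Growth recovery, yeast-based: influenza A NS1 expressed in S. cerevisiae causes slow growth, and suppressors are detected by OD600. The parent strain without NS1 is used as positive control.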
Starred values were filed as active, the others as inactive; ? = inconclusive; . = not tested or not shown; [ ] = dose if it differs, or a comment. Unless noted, calls follow the shape of the dose curve; as a rule, active = well fitted curve in the direction sought with a large enough effect; inconclusive = small, poorly fitted or top-dose-only effect, or another doubt; inactive = no such curve, though single readings can be large; an effect the other way counts as inactive or inconclusive. Potency is read from the fitted curve at half-maximal effect.

SMILES	Cruzain inh Det	Cruzain inh noDet	SARS PLpro yeast	Marburg entry inh	StopGo reporter	Lassa entry inh	RE007 growth inh	NS1 inh
CCOC(=O)c1ccccc1-n1c(C)cc(C2N=C(N)Nc3nc4ccccc4n32)c1C (stereo not given)	-7.3%	-3%	-1%	?	-15%	-14%	8%	5%
O=C1CCC(=O)N1c1ccc(-c2nc3ccccc3s2)cc1	.	.	-2%	?	17%	29%[46.1 µM]	9%	-3%
COc1ccc(CN(CCc2ccccc2)Cc2ccccc2)cc1OC	.	.	1%	.	-25%	.	-1%	0%
COc1ccc(NC(=S)N2CCOCC2)c(OC)c1	0.3%	-7%	-16%	-14%	-10%	9%	-1%	-1%
CCc1cc(=O)[nH]c(SCC(=O)N2CCOCC2)n1	.	.	0%	0%[46.1 µM]	8%	2%	4%	.
CC(C)CNC(=O)COC(=O)c1c2c(nc3ccccc13)/C(=C\c1cccs1)CC2	.	.	.	-5%	60%[activator]	?	5%	.
Cc1cccc(NC(=O)Cc2ccc(-c3ccccc3)cc2)n1	.	.	-3%	-4%[46.1 µM]	-6%	0%[46.1 µM]	-9%	8%
O=C(Nc1ccccc1Cl)O/N=C/c1ccc(F)cc1	.	.	.	7%	19%	18%	-7%	.
Cc1ccc(NC(=O)c2cccs2)cc1	1.5%	0%	-13%	-5%	.	-2%	-18%	-83%
CN(CC(=O)Nc1ccccc1Cl)C(=O)c1ccc(Cl)c(S(=O)(=O)N2CCCCCC2)c1	.	.	-3%	?	-5%	-19%[46.1 µM]	8%	.
O=Cc1cccn1-c1nccc(-c2ccco2)n1	.	.	-4%	1%[46.1 µM]	12%	7%[46.1 µM]	-6%	.
COC(=O)c1ccccc1NC1OC(=O)c2ccccc21 (stereo not given)	3.3%	-3%	-1%	?	-17%	-9%	-3%	-1%
Cc1c(/C=N/Nc2nc3ccccc3[nH]2)c2ccccc2n1C	.	.	-17%	?	?	?	-14%	-2%
CCc1ccc(CN2CCCC(CNS(=O)(=O)c3ccc(OC)cc3)C2)cc1 (stereo not given)	.	.	-2%	?	-11%	?	-7%	2%
COC(=O)C1=C(C)N(Cc2ccccc2)C(=NCc2ccc(OC)cc2)N[C@H]1c1cccc(F)c1	.	.	-2%	.	?	.	0%	-6%
Cc1coc2cc3oc(=O)c(CC(=O)NCCc4ccccc4)c(C)c3cc12	-0.5%	11%	.	1%[46.1 µM]	-3%	16%[46.1 µM]	.	.
N#Cc1ccc(C(=O)N2CCN(S(=O)(=O)c3ccc(Br)s3)CC2)cc1	.	.	2%	.	-10%	.	-5%	-1%
CC(SC1=NCCN1S(=O)(=O)c1ccc(F)cc1)c1ccccc1 (stereo not given)	.	.	0%	.	-22%	.	5%	-28%
COc1ccccc1/C=N/N1CCN(c2ccc(Cl)cc2)CC1	.	.	-8%	.	-16%	.	-8%	7%
COc1ccc(CNc2ncnc3c2[nH]c2cc(OC)c(OC)cc23)cc1	.	.	-8%	?	-20%	-2%[46.1 µM]	-9%	19%
O=P(O)(Cc1ccccc1)Cc1ccccc1	.	.	-5%	-8%[46.1 µM]	2%	6%[46.1 µM]	-12%	12%
CCOC(=O)C1=C(C)NC(C)=C(C(=O)OCC)C1C(=O)OCC(=O)NCc1ccccc1	.	.	2%	?	1%	?	7%	.
S=C(NCc1ccccn1)Nc1ccc(Cl)cc1Cl	2.7%	-1%	-21%	13%	75%[activator]	12%	?	-89%
CCn1cc(C2C(C(=O)Nc3ccc(Br)cn3)=C(C)NC3=C2C(=O)CCC3)c(C)n1 (stereo not given)	-15%	-4%	-5%	?	0%	24%	-10%	0%
O=C(CN1CCN(c2ccc(F)cc2)CC1)N(C1CCCC1)C1CCS(=O)(=O)C1 (stereo not given)	.	.	-9%	?	-21%	-3%	2%	.
Fc1ccc(C2CC(c3ccco3)n3ncnc3N2)cc1 (stereo not given)	-5.1%	-9%	14%	.	-5%	.	-3%	8%
COc1ccc(CNc2nc(S(=O)(=O)c3ccccc3)c(Cl)s2)cc1OC	-6.0%	4%	12%	?	14µM*	?	-8%	-5%
CCN1CCN(c2nc(-c3ccccc3)nc3ccccc23)CC1	-2.3%	14%	-14%	?	-30%	17%	-9%	-8%
COc1ccc(CNc2nc3nc4c(c(=O)n3[nH]2)CCC4)cc1	3.4%	-4%	5%	5%	-11%	17%	-2%	5%
Cc1csc(SC(C)C(=O)NC2CCCCC2C)n1 (stereo not given)	.	.	2%	?	-1%	8%	-3%	.
Cc1cc(OCC(=O)Nc2ccncc2)cc(C)c1Br	-4.3%	-5%	-21%	?	?	-19%	?	-103%
Cc1ccc2[nH]c3c(c2c1)CNCC3	.	.	1%	-23%[46.1 µM]	-10%	30%[46.1 µM]	-7%	4%
Cc1ccc(C(=O)CC2(O)C(=O)N(Cc3ccccc3)c3ccc(Br)cc32)cc1 (stereo not given)	-8.4%	-10%	.	.	-8%	?	.	.
COc1ccc(C2C3CCCCC3(O)CCN2C(=O)c2cccs2)cc1 (stereo not given)	2.1%	3%	-1%	24%	-6%	-2%	7%	2%
COc1ccc(CNC(=O)C(=O)Nc2ccccc2OC)cc1	-4.3%	-3%	.	.	19%	30%[46.1 µM]	.	.
O=C(O)c1ccc(N2CCN(c3ccc(Cl)cc3)CC2)c([N+](=O)[O-])c1	.	.	-3%	10%[46.1 µM]	1%	1%[46.1 µM]	1%	-82%
COc1ccc(NC(=O)CSc2nc(-c3ccc(OC)cc3)[nH]c2-c2ccc(F)cc2)cc1	-0.9%	-3%	.	0%[46.1 µM]	2%	-6%[46.1 µM]	.	.
CCc1cccc(CC)c1N1C(=O)c2cc(N3CCOCC3)c([N+](=O)[O-])cc2C1=O	-8.9%	3%	1%	15%	0%	-28%	-1%	0%
Cc1nonc1OCCNCCNc1ccc([N+](=O)[O-])cc1Cl	.	.	-2%	-30%[46.1 µM]	20%	-2%[46.1 µM]	-10%	1%
COc1ccc(-c2cc(C)no2)cc1S(=O)(=O)Nc1cccc(C)c1	.	.	1%	.	28%	.	4%	-3%
COc1ccc(Cc2nc(C(=O)Nc3ccc(F)cc3)cs2)cc1	-4.7%	0%	-15%	-24%[46.1 µM]	-1%	-5%	?	-73%
CCc1cccc(OCC(=O)N(C)CC(=O)Nc2cccc(F)c2)c1	.	.	-2%	-25%	-7%	-4%	-17%	.
O=C1ON=C(c2ccc([N+](=O)[O-])cc2)/C1=C/c1ccccc1O	.	.	2%	?	?	11%[46.1 µM]	4%	11%
CCOC(=O)c1cc2c(ccn2C)n1Cc1ccc(Cl)cc1	.	.	-1%	0%	-17%	-3%	-4%	-7%
CCOc1ccc(C(=O)NCC(=O)OCC(=O)Nc2ccccc2OC)cc1	-17%	-15%	8%	0%[46.1 µM]	-3%	-3%	-3%	-7%
CCOC(=O)c1c(COc2ccccc2)oc2ccc(O)cc12	-6.6%	10%	-14%	16%	3%	0%	7%	-25%
COCC(=O)c1[nH]c2ccccc2c1C	-2.0%	5%	?	13%[46.1 µM]	-9%	-18%	-28%	-47%
COC(=O)c1ccc(Cl)c(NC(=O)CN(c2ccccc2)S(=O)(=O)c2ccc(OC)cc2)c1	-4.5%	17%	?	-37%	-27%	?	-6%	?
CCCCC(CCC(=O)Nc1cccc([N+](=O)[O-])c1)C(=O)O (stereo not given)	.	.	4%	-6%[46.1 µM]	17%	36%	8%	6%
N#C/C(=C(/O)COc1ccc(Br)cc1)c1nnc2n1CCCCC2	.	.	-1%	2%	-9%	11%	13%	.
COc1ccc(NC(=O)NCCN2CCN(c3ccc(C)cc3)CC2)c(Cl)c1	.	.	-3%	.	-20%	.	-13%	-1%
CC(=O)CC(C)(C)S(=O)(=O)c1ccc(NC(C)=O)cc1	1.2%	0%	9%	21%	.	22%	-3%	7%
O=C(NC(=O)c1ccccc1N1CCCCC1)Nc1ccc(Br)cc1	.	.	0%	.	-19%	.	6%	0%
Cc1cc(N)n2nc(C)c(-c3ccc(Cl)cc3)c2n1	.	.	-6%	?	0%	-10%	-5%	-43%
CC(=O)c1cnc(N(C)C)s1	-9.8%	?	1%	-2%[46.1 µM]	-12%	-3%	-12%	0%
CC(=O)N1CCN(c2ccccc2NC(=O)COc2ccc(Br)cc2)CC1	1.8%	11%	-6%	-2%	?	0%	-12%	-14%
CCNC(=O)NC(=O)C(C)OC(=O)c1ccc(SC)cc1OC (stereo not given)	.	.	0%	14%	-7%	-10%	6%	.
CC(C)CCOC(=O)c1c(N)n(CC2CCCO2)c2nc3ccccc3nc12 (stereo not given)	-7.1%	21%	-11%	-28%	?	-22%	-13%	-141%
Cc1ccc(C)c(NC(=O)CSc2nnc(-c3cc(C)[nH]n3)n2N)c1	.	.	0%	-7%[46.1 µM]	26%	15%[46.1 µM]	2%	-2%
Cc1ccc(-c2nnc(Nc3cccc(Cl)c3)c3ccccc23)cc1S(=O)(=O)NCC1CCCO1 (stereo not given)	-1.7%	-19%	.	-26%[46.1 µM]	58%[activator]	?	.	.

Next entries
SMILES	Cruzain inh Det	Cruzain inh noDet	SARS PLpro yeast	Marburg entry inh	StopGo reporter	Lassa entry inh	RE007 growth inh	NS1 inh
CCC(C)[C@H](NC(=O)NCCC1=CCCCC1)C(=O)O (stereo not given in full)	.	.	0%	.	-21%	.	8%	0%
CCOC(=O)c1[nH]cnc1C(=O)Nc1ccccc1	.	.	-2%	2%[46.1 µM]	-17%	1%	3%	1%
Cc1c(C(=O)N(C)Cc2ccc(OC(F)F)cc2)oc2ccccc12	.	.	0%	-8%	-3%	-17%	8%	-2%
O=C(Nc1cccc(S(=O)(=O)Nc2ccc(Cl)cc2)c1)c1ccc[n+]([O-])c1	.	.	0%	.	40%[activator]	.	-7%	3%
CC(C)(C)NC(=O)CSc1nncn1-c1ccccc1	-1.8%	0%	2%	2%	.	-14%	-5%	-6%
Cc1nn(CC(=O)N2CCCCCC2)c(=O)c2cc3occc3n12	.	.	0%	-5%[46.1 µM]	5%	0%[46.1 µM]	10%	5%
O=C(NCCNCc1ccccn1)c1ccco1	.	.	-1%	4%[46.1 µM]	7%	4%	30%	7%
Cc1cnc(NC(=O)CSc2ccc(Cl)cc2)s1	-4.9%	-10%	-6%	0%[46.1 µM]	-10%	-1%	-15%	-9%
O=C(NCCc1ccc(Cl)cc1)C1CCCN1C(=O)NCc1ccccc1 (stereo not given)	.	.	7%	.	12%	.	-14%	2%
